From PubChem
STAT3 binder = binds human STAT3 on microarray. P40763. Small molecule microarray, His-STAT3 binding, anti-His fluorescence. calls only. hit rate 0.2% among 17,000;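 active = compounds whose four printed spots each show fluorescence over background unusually high for their array block, chance value under 7%; compounds were printed on slides so no solution concentration is given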;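 note: about 2 pmol printed per array spot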
Target sequence (P40763 whole entry, looked up): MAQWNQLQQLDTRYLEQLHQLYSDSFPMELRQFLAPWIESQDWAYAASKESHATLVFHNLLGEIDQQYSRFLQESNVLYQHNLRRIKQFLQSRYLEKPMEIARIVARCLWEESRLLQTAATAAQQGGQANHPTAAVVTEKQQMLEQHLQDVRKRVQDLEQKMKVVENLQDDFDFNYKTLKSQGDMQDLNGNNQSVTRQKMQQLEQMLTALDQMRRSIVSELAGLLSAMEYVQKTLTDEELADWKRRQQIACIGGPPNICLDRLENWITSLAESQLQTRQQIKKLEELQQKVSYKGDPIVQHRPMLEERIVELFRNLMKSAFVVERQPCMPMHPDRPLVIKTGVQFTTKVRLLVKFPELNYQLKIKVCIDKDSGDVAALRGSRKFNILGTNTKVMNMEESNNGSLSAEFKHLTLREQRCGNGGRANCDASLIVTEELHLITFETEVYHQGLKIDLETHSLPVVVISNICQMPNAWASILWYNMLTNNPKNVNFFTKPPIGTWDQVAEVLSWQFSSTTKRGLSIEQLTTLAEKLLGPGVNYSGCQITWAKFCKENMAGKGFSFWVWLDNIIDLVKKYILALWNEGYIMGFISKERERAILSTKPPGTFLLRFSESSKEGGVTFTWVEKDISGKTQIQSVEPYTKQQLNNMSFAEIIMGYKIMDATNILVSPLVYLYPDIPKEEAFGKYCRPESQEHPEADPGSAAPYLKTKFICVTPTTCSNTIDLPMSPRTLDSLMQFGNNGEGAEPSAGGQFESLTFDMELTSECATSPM
p53 mut binder = binds human mutant p53 on microarray | small molecule microarray binding, anti-GST fluorescence | calls only | hit rate 0.4% among 17,000;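 active = compounds whose four printed spots each glow above background more than chance allows, each with a p-value under 7%; compounds were printed on slides so no solution concentration is given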;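 note: about 2 pmol printed per array spot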
ID4 binder = binders of human ID4 protein; small molecule microarray, Flag-ID4 binding, fluorescence F/B; calls only; hit rate 1.2% among 31,000; P47928;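 active = spot signal over background at p below 0.07 in all four prints; compounds were printed on slides so no solution concentration is given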;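 note: a binder raises fluorescence above local background on the spot; about 2 pmol printed per array spot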
Target sequence (P47928 whole entry, looked up): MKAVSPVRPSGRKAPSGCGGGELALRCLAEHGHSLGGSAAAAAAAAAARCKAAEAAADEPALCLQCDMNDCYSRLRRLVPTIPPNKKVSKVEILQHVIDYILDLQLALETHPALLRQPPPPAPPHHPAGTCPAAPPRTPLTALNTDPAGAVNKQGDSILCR
c-Myc SMM = binds human c-Myc on microarray. calls only. small molecule microarray, His-c-Myc binding, anti-His fluorescence. hit rate 1.5% among 17,000. AID 624141;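 active = spot fluorescence over background with P-value below 7% in all four replicate spots, showing protein binding; compounds were printed on slides so no solution concentration is given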;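 note: score is binary with 100 for all four spots passing and 0 otherwise; about 2 pmol printed per array spot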
Calls only; i = inactive; . = no result given; + = active, no number. Not all compounds are listed, so the mix of outcomes need not match the whole.

compound	c-Myc SMM	STAT3 binder	p53 mut binder	ID4 binder
COc1ccc(NC(=O)Nc2ccc3c(c2)C(=O)N([C@H](C)CO)C[C@H](C)[C@H](CN(C)C(=O)Nc2ccc(C(F)(F)F)cc2)OCCCC[C@H](C)O3)cc1	i	i	i	.
Cc1ccc(S(=O)(=O)N[C@H](Cc2ccccc2)C(=O)CCl)cc1	i	i	i	.
COc1ccc([N+](=O)[O-])cc1CNCCO	i	i	i	i
Cc1noc(C)c1NC(=O)N(C)C[C@@H]1OCCCC[C@@H](C)Oc2ccc(NS(=O)(=O)c3cn(C)cn3)cc2C(=O)N([C@H](C)CO)C[C@H]1C	i	i	i	+
C[C@]12CCC3C4(C=CC5(C=C4C(=O)C4CCCCC4)C[C@@H](O)CC[C@]35C)C1CC[C@@]2(O)CN1CCC(n2c(=O)[nH]c3ccccc32)CC1 (some centres not stated)	i	i	i	i
C[C@@H]1CCCCO[C@@H](CN(C)S(=O)(=O)c2cccs2)[C@@H](C)CN([C@@H](C)CO)C(=O)c2cc(NC(=O)Cc3ccccc3)ccc2O1	i	i	i	i
C[C@@H]1CN([C@H](C)CO)C(=O)c2cccc(NS(C)(=O)=O)c2O[C@H]1CN(C)Cc1ccncc1	i	i	i	i
Cc1ccc2c(C(=O)Nc3sc4c(c3C(N)=O)CCCCC4)cc(-c3ccccn3)nc2c1C	i	i	i	+
C=C[C@@]1(C)CC(=O)[C@]2(O)[C@@]3(C)[C@@H](O)CCC(C)(C)[C@@H]3[C@H](O)[C@H](OC(=O)CCCN3CCN(C)CC3)[C@@]2(C)O1	i	i	i	i
CNC[C@H]1Oc2c(cccc2N(C)C)C(=O)N([C@H](C)CO)C[C@H]1C	i	i	i	i
C[C@H]1CCCCO[C@H](CN(C)Cc2ccccc2)[C@@H](C)CN([C@@H](C)CO)C(=O)c2cc(N(C)C)ccc2O1	i	i	i	i
C[C@@H]1CN([C@H](C)CO)C(=O)c2cc(NC(=O)Nc3cccc4ccccc34)ccc2O[C@H]1CN(C)C	i	i	i	i
C[C@@H]1CN([C@H](C)CO)C(=O)c2cc(N(C)C)ccc2O[C@H]1CN(C)CC1CCCCC1	i	i	i	.
CC(=O)OC(C)(C)[C@@H]1Cc2cc3ccc(=O)oc3cc2O1	i	i	i	.
C[C@@H]1CCCCO[C@H](CN(C)C)[C@H](C)CN([C@H](C)CO)C(=O)c2cc(NC(=O)Nc3ccccc3)ccc2O1	i	i	i	i

Compound profiles (already shown). Screens in order: c-Myc SMM | STAT3 binder | p53 mut binder | ID4 binder
C[C@H]1CCCCO[C@H](CN(C)Cc2ccccc2)[C@@H](C)CN([C@@H](C)CO)C(=O)c2cc(N(C)C)ccc2O1 as listed: i | i | i | i
Cc1ccc(S(=O)(=O)N[C@H](Cc2ccccc2)C(=O)CCl)cc1 as listed: i | i | i | .

Next results:
compound	c-Myc SMM	STAT3 binder	p53 mut binder	ID4 binder
C[C@@H]1C=C(C(=O)N2CCOCC2)O[C@H](OCc2ccc(CO)cc2)C1	i	i	i	i
COc1ccc(CN(C)C[C@@H]2Oc3ccc(NC(=O)Nc4ccc5c(c4)OCO5)cc3CC(=O)N([C@@H](C)CO)C[C@@H]2C)cc1	i	i	i	i
C=CC[C@]1(C(=O)N(C)C)N=C(c2ccc(OCCCO)cc2)O[C@H]1c1ccccc1	i	i	i	i
C[C@@H]1CN([C@H](C)CO)C(=O)c2cc(NS(C)(=O)=O)ccc2O[C@@H]1CN(C)C(=O)Nc1ccccc1	i	i	i	.
CCOC(=O)c1ccc(NC(=O)C2CC(C)=C(C)CC2C(=O)O)cc1 (configuration not stated)	i	i	i	i
COc1ccc(S(=O)(=O)N(C)C[C@@H]2Oc3ccc(NC(=O)Cc4ccccc4)cc3CC(=O)N([C@@H](C)CO)C[C@H]2C)cc1	i	i	i	i
C[C@@H]1CN([C@H](C)CO)C(=O)c2cc(NC(=O)NC3CCCCC3)ccc2O[C@@H]1CN(C)C(=O)Nc1cccc2ccccc12	i	i	i	i
O=C(NCc1ccco1)C1(c2ccccc2)CCOCC1	i	i	i	i
C/C=C/c1ccc(O)cc1C(=O)C(C)O (configuration not stated)	i	i	i	i
C[C@@H]1CN([C@@H](C)CO)C(=O)c2cccc(NS(C)(=O)=O)c2O[C@H]1CN(C)Cc1ccccc1	i	i	i	i
COc1ccc(CN(C)C[C@@H]2OCCCC[C@@H](C)Oc3ccc(NS(=O)(=O)c4c(C)noc4C)cc3C(=O)N([C@H](C)CO)C[C@H]2C)cc1	i	i	i	.
O=C(Cn1cnc2ccccc2c1=O)NCc1ccco1	i	i	i	i
C[C@H](CO)N1C[C@H](C)[C@@H](CN(C)Cc2ccncc2)Oc2ccc(NC(=O)Cc3ccccc3)cc2CC1=O	i	i	i	i
Cc1noc(C)c1S(=O)(=O)N(C)C[C@@H]1OCCCC[C@@H](C)Oc2ccc(NS(C)(=O)=O)cc2C(=O)N([C@H](C)CO)C[C@@H]1C	i	i	i	i
CC(C)NC(=O)N(C)C[C@@H]1Oc2ccc(NS(=O)(=O)c3ccc(Cl)cc3)cc2CC(=O)N([C@@H](C)CO)C[C@H]1C	i	i	i	.
COc1ccccc1NC(=O)CNC(=O)c1ccc(C)cc1	i	i	i	i
CCCN(C)C[C@@H]1OCCCC[C@@H](C)Oc2ccc(NC(=O)c3ccccc3)cc2C(=O)N([C@H](C)CO)C[C@@H]1C	i	i	i	.
O=C(COc1ccc(Cl)cc1)NC(=S)Nc1ccccc1N1CCOCC1	i	i	i	i
COC(=O)N(C)C[C@@H]1OCc2cn(nn2)CCCC(=O)N([C@@H](C)CO)C[C@@H]1C	i	i	i	i
Nc1cc2ncnc(Nc3cccc(Br)c3)c2cc1N	i	i	i	.
COc1ccc(-n2c(SCC(=O)Nc3ccccc3C)nc3ccccc3c2=O)cc1	i	i	i	i
Cn1c(=O)c2c(nc(SCCNS(=O)(=O)c3ccccc3)n2C)n(C)c1=O	i	i	i	i
C[C@@H]1CN([C@@H](C)CO)C(=O)c2cc(NC(=O)Nc3ccccc3)ccc2O[C@@H](C)CCCCO[C@H]1CN(C)C(=O)C1CCCCC1	i	i	i	i
CN1CCN(C(=O)c2nc3ccc(Cl)cc3[nH]2)CC1	i	i	i	i
Cc1ccc(NC(=O)CSc2nnnn2-c2ccc(Cl)c(C(=O)O)c2)cc1C	i	i	i	+
C[C@@H]1CC[C@]2(C(=O)O[C@@H]3O[C@H](CO)[C@@H](O)[C@H](O)[C@H]3O)CC[C@]3(C(=O)O)C(=CCC4[C@@]5(C)CC[C@H](OC6OC[C@@H](O)[C@H](O)[C@H]6O)C(C)(C)C5CC[C@]43C)C2[C@H]1C (some centres not stated)	i	i	i	i
C[C@@H]1CN([C@H](C)CO)C(=O)c2cc(NC(=O)Cn3cnnn3)ccc2O[C@H]1CN(C)Cc1ccc(Cl)c(Cl)c1	i	i	i	i
C[C@@H]1CN([C@H](C)CO)C(=O)c2cc(N(C)C)ccc2O[C@@H](C)CCCCO[C@H]1CN(C)C(=O)C1CCCCC1	i	i	i	i
C[C@@H]1CCCCO[C@@H](CN(C)C(=O)CCC(F)(F)F)[C@@H](C)CN([C@H](C)CO)C(=O)c2cc(NS(=O)(=O)c3cccs3)ccc2O1	i	i	i	i
C[C@H]1CN([C@@H](C)CO)C(=O)c2cc(NS(=O)(=O)c3cccs3)ccc2O[C@H]1CN(C)C(=O)Nc1ccc2c(c1)OCO2	i	i	i	i
COc1ccc(S(=O)(=O)Nc2ccc3c(c2)CC(=O)N([C@@H](C)CO)C[C@H](C)[C@H](CN(C)S(=O)(=O)c2cn(C)cn2)O3)cc1	i	i	i	i
C[C@@H]1CCCCO[C@@H](CN(C)C(=O)Nc2ccccc2)[C@@H](C)CN([C@@H](C)CO)C(=O)c2cc(NC(=O)Nc3ccccc3)ccc2O1	i	i	i	i
Cc1noc(C)c1NC(=O)Nc1ccc2c(c1)C(=O)N([C@@H](C)CO)C[C@@H](C)[C@@H](CN(C)C(=O)C1CCCCC1)OCCCC[C@@H](C)O2	i	+	i	i
C[C@H]1CN([C@@H](C)CO)C(=O)CCCn2nncc2CO[C@H]1CN(C)Cc1ccncc1	i	i	i	i
C[C@@H]1CN([C@H](C)CO)C(=O)c2cc(NS(C)(=O)=O)ccc2O[C@@H](C)CCCCO[C@@H]1CN(C)Cc1ccncc1	i	i	i	i
C[C@@H]1CN([C@H](C)CO)C(=O)CCCn2cc(nn2)CO[C@H]1CN(C)S(=O)(=O)c1ccc2c(c1)OCCCO2	i	i	i	i
O=C(O)CCC(=O)Nc1ccc(F)cc1	i	i	i	i
COc1ccc(OC)c(-c2nc(C)sc2CC(=O)O)c1	i	i	i	i
C[C@@H]1CCCCO[C@H](CN(C)C(=O)CCCN(C)C)[C@@H](C)CN([C@H](C)CO)C(=O)c2cc(NC(=O)CCCN(C)C)ccc2O1	i	i	i	i
C[C@H]1CN([C@@H](C)CO)C(=O)Cc2cc(NC(=O)NC3CCCCC3)ccc2O[C@@H]1CN(C)Cc1ccccc1	i	i	i	i
C[C@H]1CCCCO[C@H](CN(C)S(=O)(=O)c2cccs2)[C@@H](C)CN([C@@H](C)CO)C(=O)c2cc(NC(=O)Nc3cccc4ccccc34)ccc2O1	i	i	i	.
C[C@@H]1CN([C@H](C)CO)C(=O)Cc2cc(NC(=O)C3CC3)ccc2O[C@@H]1CN(C)S(=O)(=O)c1cccs1	i	i	i	i
O=C(NCc1cccnc1)c1ccc(-c2ccccc2[N+](=O)[O-])o1	i	i	i	i
COc1ccc(S(=O)(=O)N(C)C[C@@H]2Oc3ccc(NS(=O)(=O)c4cn(C)cn4)cc3CC(=O)N([C@@H](C)CO)C[C@@H]2C)cc1	i	i	i	i
COC(=O)C(NC(=O)c1ccccc1)(c1c(C)[nH]n(-c2ccccc2)c1=O)C(F)(F)F (configuration not stated)	i	i	i	i

Six compounds out of the list, sorted by molecular weight, falling.
compound	c-Myc SMM	STAT3 binder	p53 mut binder	ID4 binder
Cc1noc(C)c1NC(=O)Nc1ccc2c(c1)C(=O)N([C@@H](C)CO)C[C@@H](C)[C@@H](CN(C)C(=O)C1CCCCC1)OCCCC[C@@H](C)O2	i	+	i	i
COc1ccc(S(=O)(=O)N(C)C[C@@H]2Oc3ccc(NS(=O)(=O)c4cn(C)cn4)cc3CC(=O)N([C@@H](C)CO)C[C@@H]2C)cc1	i	i	i	i
C[C@@H]1CN([C@H](C)CO)C(=O)c2cc(NS(C)(=O)=O)ccc2O[C@@H](C)CCCCO[C@@H]1CN(C)Cc1ccncc1	i	i	i	i
C[C@@H]1CN([C@H](C)CO)C(=O)CCCn2cc(nn2)CO[C@H]1CN(C)S(=O)(=O)c1ccc2c(c1)OCCCO2	i	i	i	i
C[C@H]1CN([C@@H](C)CO)C(=O)CCCn2nncc2CO[C@H]1CN(C)Cc1ccncc1	i	i	i	i
COc1ccc(OC)c(-c2nc(C)sc2CC(=O)O)c1	i	i	i	i

Next part
compound	c-Myc SMM	STAT3 binder	p53 mut binder	ID4 binder
C[C@H]1CN([C@@H](C)CO)C(=O)CCCn2nncc2CO[C@H]1CN(C)Cc1ccc(C(F)(F)F)cc1	i	i	i	i
COc1ccc(NC(=S)N2CCN(Cc3c(C)nn(C)c3C)CC2)cc1OC	i	i	i	i
N#Cc1ccccc1CSc1ncn[nH]1	i	i	i	i
C/C(=C/COc1c(OC2OC(CO)C(O)C(O)C2O)ccc2ccc(=O)oc12)CO (configuration not stated)	i	i	i	i
COc1cc(-c2cc(=O)c3c(O)c(OC)c(OC)c(O)c3o2)ccc1O	i	i	i	.
C[C@@H]1CN([C@H](C)CO)C(=O)c2cc(NC(=O)Nc3ccc4c(c3)OCO4)ccc2O[C@H]1CN(C)C(=O)Nc1ccc(F)cc1	i	i	i	i
COc1ccc(S(=O)(=O)N(C)C[C@H]2Oc3c(NS(=O)(=O)c4cn(C)cn4)cccc3C(=O)N([C@H](C)CO)C[C@@H]2C)cc1	i	i	i	i
C[C@H]1CCCCO[C@@H](CN(C)C)[C@@H](C)CN([C@@H](C)CO)C(=O)c2cc(NC(=O)Nc3ccc(C(F)(F)F)cc3)ccc2O1	i	i	i	i
CC12N=C3SCc4ccccc4CN3[C@H](c3ccccc3O1)[C@H]2CO	i	i	i	i
CCOc1ccc(C)cc1S(=O)(=O)n1cnc2ccccc21	i	i	i	i
C[C@@H]1CN([C@H](C)CO)C(=O)c2cc(NC(=O)c3ccncc3)ccc2O[C@@H](C)CCCCO[C@H]1CN(C)S(=O)(=O)c1ccc(F)cc1	i	i	i	i
CNC[C@@H]1OCCCC[C@H](C)Oc2ccc(NC(=O)Nc3cccc4ccccc34)cc2C(=O)N([C@@H](C)CO)C[C@H]1C	i	i	i	i
CC(C)C(O)(C(=O)OCc1ccc(O[C@@H]2O[C@H](CO)[C@@H](O)[C@H](O)[C@H]2O)cc1)C(C)O (some centres not stated)	i	i	i	i
COc1cc([C@H](Cc2ccccc2)NC(C)=O)oc(=O)c1	i	i	i	i
C[C@@H]1CCCCO[C@@H](CN(C)C(=O)Nc2ccc(C(F)(F)F)cc2)[C@H](C)CN([C@H](C)CO)C(=O)c2cc(NC(=O)Nc3ccc(F)cc3)ccc2O1	i	i	i	.
